VACV mCherry inh – qHTS for Stage-Specific Inhibitors of Vaccinia Orthopoxvirus: mCherry Reporter Primary qHTS; 310,000 compounds, 0.63% hits; Vaccinia virus mCherry reporter infection, fluorescence; about a quarter of the inactives have no number; AID 720579, 2013; Potency, µM (top dose mostly 36.5 µM), inactives show at the highest dose activity change, negative = inhibition, actives largely listed as inhibitors; active = well fitted inhibition curve with a large enough effect; inconclusive = small, poorly fitted or top-dose-only effect; inactive = no such curve, though single readings can be large or run the other way; tested in A549 cells; note: nearly all actives have a fitted effect of over 35% in size; inactives centre near -10
VACV Venus inh – qHTS for Stage-Specific Inhibitors of Vaccinia Orthopoxvirus: Venus Reporter Primary qHTS. Potency, µM (top dose mostly 36.5 µM), for the others: at the top dose activity change, negative = inhibition, hits mostly inhibitors. Vaccinia virus Venus reporter expression, fluorescence. 330,000 compounds, 0.46% hits; active means well fitted inhibition curve with a large enough effect; inconclusive means small, poorly fitted or top-dose-only effect; inactive means no such curve, though single readings can be large or run the other way; tested in A549 cells; note: nearly all actives have a fitted effect of over 30% in size; inactives centre near -10
* = called active by the depositor; i = inactive; ? = inconclusive; · = not tested or not shown; & = joins results of further samples; [ ] = dose if it differs, or a comment. % is set by controls: 0 for no effect and ±100 for the full control effect; potency is the fitted concentration of half-maximal effect.

Below each compound – VACV Venus inh, VACV mCherry inh
1) O=C1CCCc2c1sc1nc3n(c(=O)c21)CCCCC3
    -19%, -24%
2) Cc1ccc2c(c1)sc1nc(=O)n(-c3ccc(Cl)c(Cl)c3)c(=O)n12
    -1%, -4%
3) O=S(=O)(c1ccc(Cl)cc1)c1nc(-c2ccccc2F)oc1NCCN1CCOCC1
    -15%, -21%
4) CN(C)c1ccc(-c2nc(N(C)C)c3ccccc3n2)cc1
    ?, -25%
5) Cc1ccc(Oc2ccc(NC(=O)CSc3n[nH]c(N)n3)cc2)cc1
    -19%, i
6) C=CCOc1ccc(Br)cc1CNC(C)(C)CO
    -13%, i
7) COc1ccc(C(C)=O)cc1CC(=O)Nc1ccc2c(c1)CCC2
    -4%, -15%
8) CN1CCN(C2=Cc3ccc(Cl)cc3Sc3ccc(F)cc32)CC1
    ?, ?
9) O=C(CN1C(=O)NC2(CCCC2)C1=O)NC(c1ccccc1)c1ccccc1
    -6%, -2%
10) CC12CCC(C(=O)N3CCN(Cc4ccccc4)CC3)(OC1=O)C2(C)C (centres undefined)
    -8%, -1%
11) Cn1cccc1Cc1nnc(SCC(=O)N2CCCCCC2)n1CCc1ccccc1
    5%, -6%
12) COc1ccc(N2CC2c2ccncc2)cc1 (centres undefined)
    -21%, -23%
13) Cc1onc(-c2ccccc2)c1C(=O)Nc1ccc(S(=O)(=O)NC(C)(C)C)cc1
    -10%, i
14) O=c1c2cn(Cc3ccccc3)c3ccccc3c-2nn1Cc1ccc(F)cc1Cl
    1%, -5%
15) CCOC(=O)c1cccc(NC(=O)C2CCCN2S(=O)(=O)c2cccc3cccnc23)c1 (centres undefined)
    -17%, i
16) COc1ccc(OC)c(NC(=O)c2ccc(OC3CSC3)cc2)c1
    -7%, i
17) COc1ccc(OC)c(CNC(=O)C2CCN(c3ncnc4c3nc3n4CCCCC3)CC2)c1
    -4%, i
18) CCc1ccccc1NC(=O)CCNS(=O)(=O)c1ccc2c(c1)CCN2C(=O)C1CC1
    -5%, -11%
19) Cc1ccc(C)c(S(=O)(=O)N2CCCC2CNC(=O)C(=O)NCc2ccccc2)c1 (centres undefined)
    -15%, -28%
20) CC(=O)N1N=C(c2ccc(C)cc2)OC1c1ccc(Br)cc1 (centres undefined)
    -21%, -15%
21) C#CCOCCOCCOCCNc1nc(N2CCN(C(=O)[C@H](CC(N)=O)n3cc(C(N)[C@@H](C)CC)nn3)CC2)nc(N2CCN(C(=O)[C@H](CCCCN)n3cc([C@@H](N)CC(N)=O)nn3)CC2)n1 (some centres undefined)
    -8%, -4%
22) CN(Cc1ccccc1)C(=O)Cn1ncc2c3ccccc3n(Cc3cccc(Cl)c3)c2c1=O
    -15%, -5%
23) COc1ccc(Br)cc1C1NC(=O)c2c(sc3c2CCN(C)C3)N1 (centres undefined)
    -10%, -13%
24) O=C1NCCN(Cc2ccc(F)cc2)C1CC(=O)N1CC=C(c2ccccc2)CC1 (centres undefined)
    -18%, -17%
25) COc1ccc2c(c1)c(C(=O)O)c(C)n2CCc1ccc(OC)c(OC)c1
    -10%, -23%
26) COC(=O)[C@@H]1CCCN1Cc1ccc2c(c1)CN(Cc1cccn1-c1ncccn1)CCO2
    -3%, -9%
27) COc1ccc(-c2nc(C#N)c(NCc3ccc(F)cc3)o2)cc1OC
    13µM*, ·
28) C=CCN1C(=O)C(O)(CC(=O)c2ccccc2)c2ccccc21 (centres undefined)
    -3%, ·
29) CCc1nnc(NC(=O)C2CC(=O)N(C3CCCCC3)C2)s1 (centres undefined)
    -8%, i
30) O=C(CN(C(=O)c1csnn1)c1ccc(Cl)cc1)NC1CCCC1
    -14%, i
31) CC1=C(C(=O)OC2CCCC2)C(c2c(Cl)cccc2Cl)CC(=O)N1 (centres undefined)
    -8%, -8%
32) Cn1ccc(NC(=O)Nc2ccc(Cl)cc2Cl)n1
    -27%, -10%
33) CC(C)OC(=O)C(=O)NNc1ccccc1
    -8%, i
34) O=c1cc(O)c2c([nH]1)CCC2
    -10%, -23%
35) O=c1nc2n(-c3ccccc3F)c3ccccc3cc-2c(=O)[nH]1
    -1%, -10%
36) O=C(NCCC1=CCCCC1)c1ccc2c(c1)N(Cc1cccc(Cl)c1)C(=O)c1ccccc1S2=O (centres undefined)
    -11%, -14%
37) Cc1noc(/C=C/c2ccccc2F)c1S(=O)(=O)N1CCC(C(=O)N(C)Cc2ccco2)CC1
    -9%[7.34 µM], -1%[7.34 µM]
38) COc1ccc(Nc2ncnc3scc(-c4ccc(OC)cc4)c23)cc1
    -29%, ?
39) CC1=C(C(=O)N2CCOCC2)CC(CC(=O)NCc2cccc3ccccc23)C(=O)N1CCC1=CCCCC1 (centres undefined)
    -26%, -4%
40) CC(C)(C)c1ccc(S(=O)(=O)NCC(=O)Nc2sc3c(c2C(N)=O)CCCC3)cc1
    -25%, -4%
41) O=C(COC(=O)CN1C(=O)c2ccccc2C1=O)Nc1ncc(Cl)cc1Cl
    -4%, ·
42) O=C(CN1CCCN(S(=O)(=O)c2ccc(Br)cc2)CC1)Nc1cccc(C(F)(F)F)c1
    -4%, -8%
43) Cc1ccc(NC2=NCC(=O)N2Cc2ccccc2)c(C)c1
    3%, ·
44) C[C@]12CCC(=O)C=C1C=CC1C2CC[C@]2(C)C(=O)CCC12 (some centres undefined)
    -16%, -13%
45) COc1ccc(NC(=O)Nc2nnc(N3CCCCCC3)s2)c(OC)c1
    -8%, -10%
46) C[C@H]1CN([C@@H](C)CO)C(=O)CCCn2cc(nn2)CO[C@@H]1CN(C)S(=O)(=O)c1ccc2c(c1)OCCCO2
    -12%, i
47) CN(C)CCn1c(=S)[nH]c2ccc(Cl)cc2c1=O
    1%, -1%
48) Cc1cc(C(=O)Nc2cccc(F)c2)c2c(C)nn(-c3cccc(Cl)c3C)c2n1
    -29%, -22%
49) COc1ccc(C(=O)Nc2cccc(C)c2)cc1S(=O)(=O)N1CCOCC1
    ?, ?
50) COC(=O)N/N=C/c1cc(Cl)cc(Cl)c1OCc1ccccc1
    -5%, i

Going on with the list:
Below each compound – VACV Venus inh, VACV mCherry inh
51) c1ccc(Cn2nnnc2CN2CCCC2)cc1
    0%, i
52) COc1ccc(C=NNC(=O)c2cc(C)oc2C)cc1O
    -21%, ?
53) O=C(Nc1ccc(F)cc1)C(CCc1ccccc1)N1CCN(CC(=O)N2CCCC2)CC1 (centres undefined)
    1%, -7%
54) O=[N+]([O-])c1ccc(-c2c(-c3ccccc3)ncc3cc(F)ccc23)cc1
    -5%, -13%
55) CC1=C(c2ccc(C)cc2)S(=O)(=O)NC1=NCCCN1CCN(c2ccccc2F)CC1
    ?, -9%
56) O=C1/C(=C/c2ccc(O)c(O)c2)SC(=S)N1Nc1ccccc1
    i, 164%[activator]
57) CCCCc1ccc(NC(=O)C2(C)Cc3ccccc3C(=O)O2)cc1 (centres undefined)
    8%, 0%
58) Cc1cc(C)c(NC(=O)CSc2nc3[nH]ncc3c(=O)[nH]2)c(C)c1
    -8%, -3%
59) CCN(CC(=O)NCc1cccs1)C(=O)C1CC(=O)N(c2ccc(OC)cc2OC)C1 (centres undefined)
    -11%, i
60) Cc1cc(C)c(S(=O)(=O)N2CCCC(C(=O)NCc3ccccn3)C2)c(C)c1 (centres undefined)
    -7%, -21%
61) Cc1ccc(CNC(=O)c2c(-c3ccccc3F)noc2C)o1
    -9%, -14%
62) O=c1cc(S(=O)(=O)Cc2ccccc2)[nH]c(=O)[nH]1
    4%, i
63) COc1ccccc1CCNC(=O)c1ccc2c(c1)c(C)c(C)n2Cc1ccc(Cl)cc1
    -14%, -21%
64) COCC(C)NS(=O)(=O)c1ccccc1 (centres undefined)
    -2%, i
65) Cc1cc([N+](=O)[O-])ccc1NCc1ccc2c(c1)OCCO2
    -12%, -18%
66) N#Cc1c(N)n(CCOC(=O)c2cccc([N+](=O)[O-])c2)c2nc3ccccc3nc12
    -14%, -22%
67) Nc1nnnn1/N=C/c1ccccc1Cl
    -11%, -12%
68) Cc1ccc(NC(=O)CSCC(=O)Nc2ccc(S(=O)(=O)N3CCOCC3)cc2)cc1
    -14%, -19%
69) Cc1ccc(Cl)c2c1=NC(=O)C=2c1[nH]c(=S)[nH]c1O
    -10%, -23%
70) Fc1ccccc1-c1cc2ccccc2cn1
    4%, i
71) CC(=O)c1ccc(OC2(C)CCN(CCOc3ccc(C)cc3)C2)cc1 (centres undefined)
    1%, -10%
72) O=C(CCSCc1ccccc1F)NCCc1ccccc1
    -8%, -4%
73) CCN1CCc2c(sc(NC(=O)c3ccc(C(=O)c4ccccc4)cc3)c2C(N)=O)C1
    ?, ?
74) COc1ccccc1-n1c(-c2cccnc2)n[nH]c1=S
    -3%, -6%
75) COc1cc(O)c(C(C)=O)c(OC)c1
    -15%&-14%, -11%
76) O=C(NN=Cc1cc(=O)[nH]c(=O)[nH]1)c1ccncc1
    -6%, i
77) Cc1cccc(S(=O)(=O)N/N=c2\sc3ccccc3n2C)c1
    1%, ?
78) CCN(C[C@H]1N[C@@](CC)(C(=O)OC)[C@H]2C(=O)N(Cc3ccccc3)C(=O)[C@@H]12)C(=O)COC
    -2%, 1%
79) CCc1noc(C)c1C(=O)OC(C)C(=O)Nc1ccc2c(c1)OCO2 (centres undefined)
    2%, i
80) Cc1ccc2c(=O)n(-c3cccc(Cl)c3)c(=O)[nH]c2c1
    -3%, -5%
81) CCCN(c1ccc(C(C)C)cc1)S(=O)(=O)c1ccc2c(c1)CCN2C(=O)CC
    ?, ?
82) COc1ccccc1Cn1cccc1C=O
    6%, 4%
83) C=CCNC(=O)NC(=O)COC(=O)C(C)Oc1ccc(Cl)cc1Cl (centres undefined)
    -3%, 2%
84) COc1ccc(NS(=O)(=O)c2ccc(NC(=S)NCC3CCCO3)cc2)cc1 (centres undefined)
    -11%, -12%
85) O=C(NCCn1cc(SCc2ccccc2F)c2ccccc21)c1cccs1
    -9%, -15%
86) O=C(Cn1c(=O)cnc2ccccc21)NC1CCC(O)CC1 (centres undefined)
    3%, -10%
87) CCOc1ccccc1N1CCN(C(=O)c2ccc(OCC(=O)N3CCOCC3)c(OC)c2)CC1
    -13%, i
88) O=[N+]([O-])c1cc(C(F)(F)F)ccc1NCCNC(=S)Nc1ccc(Cl)cc1
    ?, ?
89) CCCCc1nc2cc(C(=O)NCCc3c(C)n[nH]c3C)ccc2o1
    -1%, -11%
90) COc1ccccc1N1CCN(C(=S)Nc2ccccc2)CC1
    -23%&-11%, -4%
91) Cc1cccc(N=Cc2cc(Br)cc(Cl)c2O)c1
    -7%, -9%
92) CCCCP(=O)(CCCC)Cc1ccccc1
    -3%, i
93) Cc1ccccc1NC(=O)C1CCCN(S(=O)(=O)c2cccc3cccnc23)C1 (centres undefined)
    -5%, -10%
94) COc1ccc(-n2c(Cc3cccn3C)nnc2SCC(=O)NCCc2ccccc2)cc1
    -18%, -19%
95) CCc1cc(=O)oc2c(C)c3c(cc12)CN(CCc1ccccc1OC)CO3
    1%, -3%
96) O=[N+]([O-])c1ccc(NC2CCN(Cc3ccccc3)CC2)c2ccncc12
    -5%, 0%
97) Cc1nc2ccn(Cc3ccco3)c(=O)c2cc1C(=O)Nc1ccc(F)cc1
    -1%, -2%
98) COc1ccccc1C(O)c1ncc(-c2cccc3ccccc23)[nH]1 (centres undefined)
    -19%, ?
99) COc1ccccc1NC(=O)c1c(C)cc(=O)oc1C
    -6%, -4%
100) O=C(Cn1ccccc1=S)c1ccc(Cl)c(Cl)c1
    -28%, i

Next section:
Below each compound – VACV Venus inh, VACV mCherry inh
101) c1ccc(-c2noc(-c3ccco3)n2)nc1
    -8%, -13%
102) CC(C)C(=O)COc1c2occc2cc2ccc(=O)oc12
    6%, 7%
103) CC(C)CCN1CCN(Cc2cc(F)ccc2-n2cccn2)CC1CCO (centres undefined)
    -5%, 3%
104) COC(=O)[C@H]1C[C@H](OC(=O)NCc2ccco2)[C@@]2(O)CN(S(=O)(=O)c3ccc(C)cc3)CC2[C@H]1C(=O)OC (some centres undefined)
    -9%, -8%
105) CCc1ccc2[nH]c(=O)c(CN(CCN(CC)CC)C(=O)Nc3ccccc3OC)cc2c1
    -7%, ·
106) O=C(OCc1c(-c2ccccc2)ncc2ccccc12)c1ccc(Cl)cc1Cl
    -14%, i
107) C=CCn1c(SCC(=O)Nc2sccc2C(N)=O)nc2sc(CC)cc2c1=O
    10µM*, ·
108) CN(/N=C/c1ccncc1)c1cnc2ccccc2n1
    -11%, -4%
109) O=C(COc1ccccc1)NCc1ccc2c(c1)CCN2C(=O)c1ccc(Cl)cc1
    -8%, -6%
110) CC(C)NC(=O)C(=O)N/N=C/c1ccco1
    -12%, i
111) Cc1cccc(CC(=O)N2CC(=O)Nc3ccc(Br)cc3C2c2ccc(F)cc2)c1 (centres undefined)
    -23%, -15%

Source: PubChem BioAssay (National Center for Advancing Translational Sciences (NCATS))
